Screening results as filed in PubChem.
Sfp inh: inhibitors of Bacillus subtilis Sfp phosphopantetheinyl transferase. Q9F4F7. Biochemical Sfp PPTase activity, qHTS. Potency, µM, for the others: max response, negative = inhibition, actives largely listed as inhibitors. actives 3.5% (n = 310,000). AID 1490; active means well fitted inhibition curve with a large enough effect; inconclusive means small, poorly fitted or top-dose-only effect, or another doubt; inactive means no such curve, though single readings can be large or run the other way;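 further: the enzyme is Sfp with the accession as filed and its product quenches rhodamine fluorescence; potency means the concentration at half of the fitted maximal effect; 0% = enzyme reaction without inhibitor and -100% = no enzyme wells; top concentration of the series not given in the record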
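Buffer: 50 mM Hepes-Na pH 7.6, 10 mM MgCl2, 0.01% Nonidet P-40, 0.01% BSA. Enzyme 15 nM, pre-exposed to compound 15 min; substrates then added and fluorescence change tracked over 30 min.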
PINK1 modulator: changes PINK1 expression. PINK1 immunofluorescence, high-content cytometry, 24 h. actives 0.2% (n = 410,000). Potency, µM (series often up to 76.6 µM), for the others: at the top dose activation (PINK1 increase), actives largely listed as activators. AID 624263; active = well fitted activation curve with a large enough effect; inconclusive = small, poorly fitted or top-dose-only effect; inactive = flat fitted curve, though single readings scatter; cell line not stated here;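 further: potency means the concentration at half of the fitted maximal effect; % of control where 0% means no effect; nearly all actives have a fitted effect of over 65% in size; a mitochondrial uncoupler was the plate control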
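PINK1 protein, normally rapidly degraded, was detected by immunofluorescence after 24 hour compound treatment of a stable cell line. Titration data (5 concentrations) came from laser-scanning cytometry, with CCCP-treated wells as controls.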
gsp agonist: agonists of gsp mutant (McCune-Albright syndrome). actives 0.13% (n = 340,000). Potency, µM (titrated, usually from 76.9 µM), for the others: top-dose activation (cAMP increase), most hits filed as activators. gsp mutant cells, cAMP HTRF, 30 min; control for the full effect not named in the record; active = well fitted activation curve with a large enough effect; inconclusive = small, poorly fitted or top-dose-only effect, or another doubt; inactive = no such curve, though single readings can be large or run the other way; cell line not stated here;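 further: phosphodiesterase inhibitor Ro 20-1724 added with compounds to block cAMP breakdown; potency means the concentration at half of the fitted maximal effect; nearly all actives have a fitted effect of over 60% in size; about a fifth of the inactives were tested at one dose only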
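Cells in DMEM/10% FBS with G418 were pretreated with compounds in DMSO plus […] (300 uM stock) for 30 min at 37C. cAMP was measured by HTRF (cAMP-d2 plus anti-cAMP antibody-K) after 30 min at room temperature.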
ClpP mod: qHTS Assay for Activators of ClpP | ATP-dependent Clp protease proteolytic subunit (Bacillus subtilis (strain 168)), P80244 | purified B. subtilis ClpP, FRET peptide cleavage, 20 min | Potency, µM (highest dose often 57.5 µM), for inactives: at the highest dose activity change, negative = active | actives 1.9% (n = 340,000) | AID 651965, 2013; active = well fitted falling curve with a large enough effect; inconclusive = small, poorly fitted or top-dose-only effect; inactive = no such curve, though single readings can be large or run the other way; further: potency means the concentration at half of the fitted maximal effect; the source files actives as falling curves though it sought activators and does not explain the sign; nearly all actives have a fitted effect of over 65% in size; many hits overshoot -100%
Target sequence (P80244 whole entry, looked up): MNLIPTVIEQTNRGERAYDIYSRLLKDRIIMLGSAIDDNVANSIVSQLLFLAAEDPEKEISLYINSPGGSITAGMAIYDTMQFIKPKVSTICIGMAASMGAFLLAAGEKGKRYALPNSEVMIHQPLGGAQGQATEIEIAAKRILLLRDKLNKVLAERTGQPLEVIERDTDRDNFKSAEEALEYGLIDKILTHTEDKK
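Buffer: 100 mM Tris/HCl pH8, 100 mM KCl, 0.05% low protease BSA, 2.5% glycerol, 0.01% Tween-20. ClpP 10 microg/mL final; 20 min RT; delta FRET normalized to ADEP and DMSO controls.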
gsp antag: gsp mutant antagonism | AID 624288 | actives 0.4% (n = 340,000) | Potency, µM (series often up to 76.9 µM), inactives show at the top dose activity change, negative = inhibition, usual class: inhibitors | gsp-mutant cells, cAMP HTRF, 30 min; control for the full effect not named in the record; active = falling curve of any shape with a large fitted effect; inconclusive = falling curve, mostly with a smaller effect; inactive = flat or rising curve; cell line not stated here;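 further: intracellular cAMP measured with PDE inhibitor Ro 20-1724 present during compound exposure; potency means the concentration at half of the fitted maximal effect; on the % scale 0 is the no-effect control and ±100 the full control effect; nearly all actives have a fitted effect of over 65% in size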
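Cells in G418 medium, seeded 16-24 h, 37C; buffer exchange to DPBS + 1 mM CaCl2, 0.5 mM MgCl2, 0.05% BSA; cpds in DMSO + […] (300 uM stock), 30 min 37C; HTRF cAMP detection.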
Menin MLL FP FL: displaces fluorescein MLL peptide from human menin | Fluorescence polarization, fluorescein-MLL peptide displacement from menin | AID 1766 | FP activity change, % at 61.4 µM | 290,000 tested, under 10 active; inconclusive = falling polarisation curve, or a change in total fluorescence; inactive = total fluorescence flat and polarisation flat or rising; no compound was filed as active; the % refers to the polarisation; negative = inhibition;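 further: % of control where 0% means no effect; inhibitors lower the polarisation; unlabelled MLL peptide was the positive control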
D2 agonist: human D2 receptor agonism in beta-arrestin assay | DiscoveRx PathHunter D2 beta-arrestin, luminescence, 90 min; 100% = 57 uM dopamine signal | activation, % (no concentration beside the values) | AID 624465 | actives 0.084% (n = 360,000); in the data active = activation above about 40%; inconclusive = about 15% to 40%; inactive = below about 15%; further: compound concentration not given in the record; the text of the record calls up to 30% inactive
Target sequence (P14416 whole entry, looked up): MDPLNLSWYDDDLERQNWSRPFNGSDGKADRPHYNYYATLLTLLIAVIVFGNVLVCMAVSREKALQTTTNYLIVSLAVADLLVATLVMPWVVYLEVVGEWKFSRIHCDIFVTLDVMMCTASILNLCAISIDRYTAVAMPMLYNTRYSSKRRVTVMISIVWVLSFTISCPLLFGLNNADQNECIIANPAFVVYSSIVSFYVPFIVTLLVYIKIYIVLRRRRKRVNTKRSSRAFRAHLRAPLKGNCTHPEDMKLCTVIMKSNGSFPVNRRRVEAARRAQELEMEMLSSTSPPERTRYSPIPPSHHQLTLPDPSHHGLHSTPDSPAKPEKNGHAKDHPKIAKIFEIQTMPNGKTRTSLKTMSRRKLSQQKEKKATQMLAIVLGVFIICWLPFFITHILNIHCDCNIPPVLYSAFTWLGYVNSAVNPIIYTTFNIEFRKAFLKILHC
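Agonist mode: compounds alone added to overnight-plated D2 PathHunter cells for 90 min at 37 C, with 57 uM final dopamine (EC100) defining full response. Beta-arrestin recruitment detected by chemiluminescent reagent, read after 1 h at ambient temperature.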
* hit, by the source's call; ? = inconclusive; / = no result given; [ ] = another dose, or the depositor's remark.

SMILES | Sfp inh | PINK1 modulator | gsp agonist | ClpP mod | gsp antag | Menin MLL FP FL | D2 agonist
C[C@@H]1CCCCO[C@@H](CN(C)CC2CCCCC2)[C@@H](C)CN([C@H](C)CO)C(=O)c2cc(NS(=O)(=O)c3ccc(Cl)cc3)ccc2O1 | / | -3.0% | -9.3% | -2.4% | / | / | -6.6
COC(=O)Cc1csc(Nc2c(C)n(C)n(-c3ccccc3)c2=O)n1 | 13.7% | 5.9%[38.3 µM] | -6.2% | 0.6% | 5.0% | 0.8 | 1.4
CCCN1C(=O)/C(=C/C=C2\N(CC)c3ccccc3C2(C)C)SC1=S | 16.4% | 12.0% | 12.3%[15.4 µM] | -0.6% | -4.2% | ? | -9.5
C=CCN1C(=O)C(Cc2ccc(OC)cc2)S/C1=N/N=C/c1ccco1 (stereo unspecified) | -12.0% | 5.4%[38.3 µM] | 2.0% | 0.4% | -5.3% | 0.4 | 0.2
Cc1cc2oc(=O)cc(-c3ccccc3)c2c(C)c1-c1ccc(O)cc1 | -13.9% | 1.7% | / | -9.3% | -7.6% | 2.1[94.6 µM] | 3.7
O=C(CNC(=O)C12CC3CC(CC(C3)C1)C2)N1CCN(S(=O)(=O)/C=C/c2ccccc2)CC1 | -3.8% | 2.6% | -18.8% | -2.4% | -11.3% | 4.8 | -2.2
FC(F)(F)c1cccnc1N1CCN(c2ncnc3nc[nH]c23)CC1 | 15.8% | 3.3% | -37.2%[inhibitor] | -17.3% | -4.6% | 2.6 | 0.2
CC(C)CC(=O)NC1(C(F)(F)F)C(=O)Nc2c1c(=O)[nH]c(=O)n2Cc1ccco1 (stereo unspecified) | 11.1% | 1.7% | -29.2% | -6.2% | 7.6% | 4.1 | -3.4
CC[C@@H]1CCCCc2ccccc2[C@@H](C(=O)C[C@H](O)CC(C)=O)OC1=O | / | 0.6% | / | 0.3% | -8.3% | / | 2.2
COc1cccc(Oc2ccc(N)cn2)c1 | -1.5% | 0.5% | -1.1% | 25.1µM* | 12.6% | 4.0 | -1.5
CCOc1ccccc1NC(=O)C(C)N1C(=O)c2ccccc2S1(=O)=O (stereo unspecified) | / | 0.6% | 28.9% | -1.2% | -1.5% | / | -2.7
CC(=O)c1ccc(OCCCC(=O)NNC(=O)c2ccccn2)cc1 | / | -1.1% | -65.5%[inhibitor] | 1.5% | 12.6% | / | 1.0
O=C(O)/C=C/C(=O)N1CCN(S(=O)(=O)c2cccc(C(F)(F)F)c2)CC1 | 24.9% | 0.9% | -1.7% | 2.3% | 5.3% | -0.7 | 2.6
Cc1cc(Br)c(NC(=O)CN(C)CCOc2ccccc2)c(Br)c1 | 6.5% | 1.1% | -2.7% | -1.2% | -7.4% | 0.9 | -6.2
CNC(=O)N(C1=NCC(C)(C)S1)c1ccc(F)c(Cl)c1 | 12.5% | 9.5% | -0.8% | -0.5% | 6.8% | 0.5 | -1.4
COCCn1c(=O)c(-c2ccc(Cl)cc2)nc2cnc(N3CCOCC3)nc21 | 15.3% | -0.3% | / | / | / | -2.7 | /
CCCCCCCCC(=O)N1CCN(c2cc3c(cc2F)c(=O)c(C(=O)O)cn3CC)CC1 | -6.1% | 3.2% | -11.7% | -14.1% | 0.0% | ? | -4.3
O=C(Nc1ccc(N2CCOCC2)c(Cl)c1)C1CCCCC1 | 9.4% | -5.3%[38.3 µM] | 8.1% | 1.7% | 5.1% | 0.3 | 1.0
Cc1nc2ccccn2c1C(=O)NCC(C)C | -2.5% | 0.1% | -18.3% | -26.2% | 13.8% | 1.0 | 2.4
O=C(c1cc(-c2ccc(F)cc2)on1)N1CCCc2ccccc21 | 1.5% | 0.1% | -12.0% | -0.4% | -15.2% | 3.0 | 1.3
COc1ccc(CCNC(=O)CCc2cc(OC)c(OC)c(OC)c2)cc1 | 1.9% | -0.7% | -4.5% | 0.1% | -1.5% | -4.2 | 3.2
CCOC(=O)C1CCN(C(=O)Cn2nc(C)n3cccc3c2=O)CC1 | 16.6% | -1.1% | ? | 0.1% | 6.3% | / | -0.7
CCCCN(C)CCCNC(=O)c1ccc2c(c1)NC(=O)C(N1CCOCC1)S2 (stereo unspecified) | -22.0% | 1.5% | -1.1% | 1.8% | 5.5% | -0.2 | -3.2
COc1ccc(OC)c(C=Cc2ccc([N+](=O)[O-])cc2)c1 | / | 12.4% | ? | -3.7% | / | / | -3.6
CC(=O)Nc1ccccc1OC(=O)N1CCOCC1 | 3.0% | 1.2%[38.3 µM] | 3.0% | -1.7% | 6.0% | -0.4 | 1.7
CC(=O)N(CC(=O)Nc1sc(C)c(C)c1C(N)=O)Cc1ccccc1 | 8.7% | 0.4% | -22.1%[15.4 µM] | / | / | -0.3 | 0.3
Cc1cc(OCC[N+]2(C)CCCCC2)nc2ccccc12 | 18.6% | 0.1% | -75.4%[inhibitor] | -0.5% | 4.2% | 0.4 | -1.7
CCN1CCc2nc3ccccc3c(C(=O)Nc3ccc(F)cc3)c2C1 | 6.0% | 2.1% | -29.0% | -3.2% | 9.9% | 5.4 | -1.5
COc1ccc(C(=O)c2ccc([N+](=O)[O-])cc2)cc1S(=O)(=O)N1CCC(C(=O)O)CC1 | 13.4% | -0.3% | -23.4% | 0.7% | -5.8% | -6.1 | ?
O=C1Cc2ccccc2Sc2ccc(Cl)cc21 | -19.4% | ? | ? | 3.9% | 1.3% | -0.2 | -8.6
O=C(c1cccc(C(=O)N2CCN(c3ncccn3)CC2)c1)N1CCN(c2ncccn2)CC1 | 12.5% | -1.0% | 18.3% | -16.9% | 0.7% | 2.3 | 0.3
CC(C)(C)N1C(=O)c2ccc(C(=O)Nc3nccs3)cc2C1=O | 12.7% | 1.1% | 3.1% | -2.0% | -3.1% | 0.7 | -3.7
COc1ccc(OC)c(NC(=O)COC(=O)COc2c(Cl)cc(Cl)c3ccc(C)nc23)c1 | / | -0.2% | -13.9%[15.4 µM] | / | -23.5% | / | -1.3
O=C1NC(c2cccc(Cl)c2)Oc2ccccc21 (stereo unspecified) | 3.4% | 1.0% | 0.7%[15.4 µM] | -0.9% | 5.4% | 1.5 | 2.4
COCC(=O)Nc1cc(C)c2c(=O)oc3ccccc3c2n1 | 7.5% | 0.6% | -2.4% | -4.6% | 5.5% | -1.4 | -3.5
Cc1ccc(NC(=O)CN(C)C(=O)c2ccc3[nH]c4c(c3c2)CC(C)CC4)cc1 (stereo unspecified) | / | -1.3% | -5.3% | -3.2% | -8.1% | / | -1.3
COc1ccc(C(=O)N2CCC[C@@]3(CCN(c4ccncc4)C3)C2)cc1 | -9.2% | -0.9% | / | / | / | 0.2 | /
COc1ccccc1Cn1c(C)c(C(=O)NCc2ccc3c(c2)OCCO3)sc1=O | / | 3.4% | / | 2.6% | / | / | 2.9
CCn1c(C)cc2c(c1=O)C(c1ccncc1)C(C#N)=C(N)O2 (stereo unspecified) | 2.8% | 0.6% | -2.6% | -1.4% | 2.1% | 3.7 | 5.5
Cc1cccc(NC(=O)COC(=O)c2ccccc2-c2nc3ccccc3s2)c1C | 3.7% | 2.2% | ? | -21.2% | -27.7% | -0.4 | -0.8
O=C(c1ccc(S(=O)(=O)N2CCCC2)cc1)N(c1ccccc1)C1C=CS(=O)(=O)C1 (stereo unspecified) | 20.2% | 0.5% | 8.3% | 2.4% | 2.4% | 0.3 | -2.9
CCc1nc2ccc(C(=O)N(C)CC(=O)Nc3ccc(F)c(F)c3F)cc2nc1CC | / | -1.8% | 1.4%[15.4 µM] | 0.5% | -14.3% | / | 2.8
CCOc1ccccc1N1CCN(C(=O)c2c(-c3c(F)cccc3Cl)noc2C)CC1 | / | 2.2% | 3.7%[15.4 µM] | -0.7% | -19.5% | / | -1.8
O=C(COc1ccc2c(-c3ccccc3)cc(=O)oc2c1)N[C@@H](Cc1c[nH]c2ccc(O)cc12)C(=O)O | 0.2% | 0.7% | / | -5.4% | 2.6% | -0.4 | -3.5
CC(C)CNC(=S)NC1CC2CCCC(C1)N2Cc1cccs1 (stereo unspecified) | 10.3% | ? | -4.2% | -0.9% | 7.6% | 1.1 | 1.3
O=C(NCCCN1CCCC1=O)c1cc(-c2cccnc2)nc2ccc(Cl)cc12 | 22.9% | 1.3% | 5.1%[15.4 µM] | 1.4% | -3.4% | -2.8 | 1.9
O=C(NCc1ccccc1)/C(=N\O)c1ccccc1 | 15.4% | 0.5% | -6.5% | 0.2% | -3.4% | 0.2 | -4.6
COc1ccc(/C(O)=C2\C(=O)C(=O)N(CC3CCCO3)C2c2cc(OC)ccc2OC)cc1 (stereo unspecified) | 4.0% | / | 19.9% | 0.0% | -3.6% | 5.6 | -1.3

Next part (two carried over from the part before).
SMILES | Sfp inh | PINK1 modulator | gsp agonist | ClpP mod | gsp antag | Menin MLL FP FL | D2 agonist
O=C(NCc1ccccc1)/C(=N\O)c1ccccc1 | 15.4% | 0.5% | -6.5% | 0.2% | -3.4% | 0.2 | -4.6
COc1ccc(/C(O)=C2\C(=O)C(=O)N(CC3CCCO3)C2c2cc(OC)ccc2OC)cc1 (stereo unspecified) | 4.0% | / | 19.9% | 0.0% | -3.6% | 5.6 | -1.3
CC(=O)c1cccc(Nc2nc(-c3ccccc3)cs2)c1 | -25.1% | 5.6% | -23.9%[15.4 µM] | -1.6% | -21.1% | 1.8 | -3.3
Cc1cc(NC(=O)c2cc3n(n2)C(C(F)(F)F)CC(c2ccc(Cl)c(Cl)c2)N3)no1 (stereo unspecified) | 9.8% | 11.5% | -45.8%[inhibitor] | 0.9% | 3.8% | 2.3 | -2.3
CCN(CC)CCN1C(=O)C(=O)/C(=C(/O)c2c(C)[nH]c(C(=O)OC)c2C)C1c1cccs1 (stereo unspecified) | -1.7% | 5.5% | -13.3% | 1.1% | 12.1% | -1.8 | -3.3
C=CCN(c1ccccc1)S(=O)(=O)c1cccc(C(=O)OCC(=O)NCCOC)c1 | 16.7% | 1.2% | 1.4% | -0.3% | 0.3% | 1.9 | -3.9
C=CCN(c1ccc(C(=O)NCCc2ccccc2)cc1)S(C)(=O)=O | 8.4% | 4.8%[38.3 µM] | -41.2%[inhibitor] | -1.4% | 1.2% | 3.6 | 1.7
